CtBP-E1A inh: qHTS Assay for Inhibitors of the CtBP/E1A Interaction | AlphaScreen GST-E1A/His-CtBP binding, 1536-well; active compounds read low; control for the full effect not named in the record | activity change, % (test concentration not listed) | actives 0.49% (n = 340,000) | CtBP / adenovirus E1A interaction (AlphaScreen); in the data active means activity change below about -65%; inconclusive means about -30% to -65%; inactive means above about -30%; further: on the % scale 0 is the no-effect control and ±100 the full control effect
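Protein mix (5X: 125 nM each GST-E1A, His-CtBP) was incubated with pinned compound 2 h at 37 deg C in dark, in 50 mM Tris pH 8.0 buffer with 300 mM NaCl. Glutathione donor and nickel acceptor beads followed; AlphaScreen signal read after 1 h.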
Six1-Eya2 blk: qHTS Assay for Inhibitors of the Six1/Eya2 Interaction; AlphaScreen GST-Six1/His-Eya2 binding, biochemical; active compounds read low; control for the full effect not named in the record; actives 0.56% (n = 360,000); Homeobox protein SIX1 (Homo sapiens) + Protein phosphatase EYA2 (Homo sapiens), …; activity change, % (test concentration not listed); AID 651725, 2012; in the data active = activity change below about -65%; inconclusive = about -30% to -65%; inactive = above about -30%; further: on the % scale 0 is the no-effect control and ±100 the full control effect
Target sequence (O00167 whole entry, looked up): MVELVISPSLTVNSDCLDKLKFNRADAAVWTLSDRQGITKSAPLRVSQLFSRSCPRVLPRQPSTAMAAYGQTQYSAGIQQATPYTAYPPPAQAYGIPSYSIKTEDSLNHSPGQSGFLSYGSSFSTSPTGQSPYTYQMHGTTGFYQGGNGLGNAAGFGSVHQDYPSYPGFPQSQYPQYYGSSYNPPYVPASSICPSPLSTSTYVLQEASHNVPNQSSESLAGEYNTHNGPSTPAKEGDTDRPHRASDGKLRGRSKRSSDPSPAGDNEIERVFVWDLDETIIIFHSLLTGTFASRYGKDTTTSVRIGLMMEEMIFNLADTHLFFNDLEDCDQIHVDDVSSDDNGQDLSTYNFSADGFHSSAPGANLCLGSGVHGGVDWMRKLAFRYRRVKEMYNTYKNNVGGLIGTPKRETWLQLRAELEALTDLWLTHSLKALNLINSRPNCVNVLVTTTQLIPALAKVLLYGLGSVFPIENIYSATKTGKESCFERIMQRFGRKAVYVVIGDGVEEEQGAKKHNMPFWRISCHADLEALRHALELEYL
Target sequence (Q15475 whole entry, looked up): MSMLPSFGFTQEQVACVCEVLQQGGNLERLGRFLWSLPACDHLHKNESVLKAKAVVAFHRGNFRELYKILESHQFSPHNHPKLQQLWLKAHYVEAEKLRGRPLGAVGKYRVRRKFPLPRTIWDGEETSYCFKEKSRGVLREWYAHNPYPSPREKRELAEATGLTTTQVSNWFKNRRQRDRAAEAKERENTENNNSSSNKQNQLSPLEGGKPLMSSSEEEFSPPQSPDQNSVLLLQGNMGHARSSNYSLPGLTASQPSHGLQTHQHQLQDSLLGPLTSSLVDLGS
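Six1/Eya2 binding was read as AlphaScreen signal after compounds were pinned into GST-Six1 plus His-tagged Eya2 (5X stock 250/500 nM) in pH 8.0 Tris/NaCl/TCEP buffer, beads added, then incubated 1 h, 37 C, dark.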
TRPML1 agonist: qHTS for Agonists of the Human Mucolipin Transient Receptor Potential 1 (TRPML1); AID 624414, 2012; Mucolipin-1 (Homo sapiens), Q9GZU1; TRPML1-expressing cells, Ca2+ dye fluorescence, FDSS; host cell line not named in the record; reference of the full effect not given here; actives 0.12% (n = 410,000); activation, % (test concentration not listed); in the data active = activation above about 50%; inconclusive = about 30% to 50%; inactive = below about 30%; further: 0% is about no effect; the text of the record puts the active cut at 80%
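Calcium fluorescence on an FDSS kinetic reader gave the read-out. Tet-induced TRPML1-DL cells were plated overnight, dye-loaded (Ca8 with quencher, 45-90 min, room temperature, dark), then read 110 s after compound addition, and again 110 s after 4uM final 54-4 (EC80).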
TRPML1 inh: qHTS for Inhibitors of the Human Mucolipin Transient Receptor Potential 1 (TRPML1); TRPML1-inducible cells, Ca2+ dye fluorescence, FDSS; active compounds read low; inhibition of EC80 agonist-evoked calcium signal; Mucolipin-1 (Homo sapiens), Q9GZU1; AID 624415, 2012; actives 0.02% (n = 390,000); activity change, negative = inhibition, % (test concentration not listed); in the data active means activity change below about -50%; inconclusive means about -30% to -50%; inactive means above about -30%;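 further: stimulus is agonist 54-4 at its EC80 concentration; on the % scale 0 is the no-effect control and ±100 the full control effect; compound concentration not given in the record; the text of the record puts the active cut at -80%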
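Calcium fluorescence in TRPML1-DL cells induced overnight with Tet: a 110 s read after compound pin addition, then a 110 s antagonist read after challenge with 54-4 at 4 uM final (EC80).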
PINK1 expr mod: A Quantitative High throughput Screen to Identify Chemical Modulators of PINK1 Expression | PINK1 immunofluorescence, high-content cytometry, 24 h | actives 0.2% (n = 410,000) | Potency, µM (top dose mostly 76.6 µM), for the others: at the highest dose activation (PINK1 increase), actives largely listed as activators | AID 624263, 2012; active = well fitted activation curve with a large enough effect; inconclusive = small, poorly fitted or top-dose-only effect; inactive = flat fitted curve, though single readings scatter; cell line not stated here;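 further: potency means the concentration at half of the fitted maximal effect; % of control where 0% means no effect; nearly all actives have a fitted effect of over 65% in size; a mitochondrial uncoupler was the plate control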
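Measures PINK1 amount and localization on or inside mitochondria by immunofluorescence. Stable cells get compounds at 5 concentrations for 24 hours before fixation and staining; CCCP controls included.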
D2 agonist: Beta-Arrestin HTS for Positive Allosteric Modulators of the Human D2 Dopamine Receptor: Agonists. D(2) dopamine receptor (Homo sapiens), P14416. DiscoveRx PathHunter D2 beta-arrestin, luminescence, 90 min; 100% = 57 uM dopamine signal. activation, % (test concentration not listed). actives 0.084% (n = 360,000). AID 624465, 2012; in the data active = activation above about 40%; inconclusive = about 15% to 40%; inactive = below about 15%; further: compound concentration not given in the record; the text of the record calls up to 30% inactive
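DiscoveRx PathHunter D2 beta-arrestin cells (2,100/well) attached overnight, then compound-stimulated 90 min at 37 C in HBSS/10 mM HEPES/0.1% Tween-20 buffer; beta-galactosidase complementation read by luminescence after 1 h at ambient temperature. Dopamine 57 uM final (EC100) as control.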
* = called active by the depositor; u = inconclusive; x = no result given; & = joins results of further samples; [ ] = another dose, or the depositor's remark.

SMILES	CtBP-E1A inh	Six1-Eya2 blk	TRPML1 agonist	TRPML1 inh	PINK1 expr mod	D2 agonist
O=C(Nc1ccc(-c2nc3cc(NC(=O)c4ccccc4Cl)ccc3o2)cc1)c1ccccc1Cl	x	x	-0.1	7	3.3%	x
CCOC(=O)CSc1nccc(N(C)C)c1C#N	4	-3	0.0	13	-2.0%	-1.4
CC(=O)c1cccc(NC(=O)CNC(=O)c2sc3ccccc3c2Cl)c1	-4	-2	0.8	-7	15%	-1.1
Cc1cccc(C(C)(C)C)c1OCCCCN1CCCC1	7	-2	-1.2	-4	1.5%	-0.3
Cc1cc(C)n(-c2nc3ccccc3nc2N2CCN(S(=O)(=O)c3ccc4ccccc4c3)CC2)n1	8	4	1.4	-6	11%[38.3 µM]	0.0
CN(C)CCn1c2c(c(SCC(=O)NCc3ccccc3)nc1=O)CCC2	11	-1	1.6	21	0.3%	-3.0
COc1ccccc1CNc1cc(CSc2ccc(Cl)cc2)nc(C)n1	1	7	2.3	11	u	1.9
COc1cc2c(cc1OC)n(CC(=O)c1ccc(F)cc1)c(=O)n1nc(CCn3nc(C)cc3C)nc21	x	x	-0.1	-12	0.4%	x
CCC(C)NS(=O)(=O)c1ccc(NS(=O)(=O)c2ccc(F)cc2)cc1 (stereo not drawn)	-4	2	0.0	-7	5.0%[38.3 µM]	-0.6
CN(C(=O)c1cccc(Nc2ccc(-c3ccc4c(c3)OCCO4)nn2)c1)C1CCCCC1	-13	-25	0.3	0	-2.1%	3.4
CC(=O)N(C1CC(C)C(C#N)(C#N)C1(C#N)C#N)N(C)C (stereo not drawn)	2	u	2.0	-11	12%	-9.7
CCOc1ccc(C(=O)CC(C(=O)O)N2CCCCC2)cc1 (stereo not drawn)	-5	-20	1.1	-7	-0.5%	5.3
C/C(CC(=O)Nc1ccc(Cl)cn1)=N\NC(=O)Cc1cccs1	2	0	0.4	-7	3.9%	6.8
COCc1c(C(=O)N/N=C\c2ccccn2)nnn1-c1nonc1N	-70*	-74*	-0.3	-4	1.0%	-1.3
Cn1c(=O)c2c(=O)cc(NNC(=O)C(C)(C)C)[nH]c2n(C)c1=O	0	-7	-1.3	-6	-2.4%	-4.0
Cc1ccc2c(c1)[nH]c1c(=O)n(CCN3CCNCC3)cnc12	0	19	1.1	4	1.3%	0.4
CCO/C=C1/C(=O)N(C)C(=O)c2cc(OC)ccc21	-7	-11	-0.2	-23	0.2%	-0.4
Cc1ccc2[nH]cc(CCNC(=O)C3CCCO3)c2c1 (stereo not drawn)	x	-9	x	x	0.5%	1.7
Cc1ccc(C(=O)C(C)OC(=O)c2nc(Cl)ccc2Cl)cc1 (stereo not drawn)	-7	-19	-0.1	27	1.6%	-1.9
Cc1ccccc1-c1nn(-c2ccc(F)cc2F)cc1CNCCN(C)C	4	-16	-0.3	-10	1.7%	-1.8
O=C1c2ccccc2C(=O)N1CCSc1ccccc1	19	22	1.0	11	3.5%	-1.1
CCN(c1ccccc1)S(=O)(=O)c1ccc(NC(=O)c2cc(=O)c3cc(C)cc(C)c3o2)cc1	x	x	1.6	-17	3.4%	x
COc1ccc(N(C(=O)Cc2cccs2)C(C(=O)NC2CCCC2)c2ccncc2)cc1OC (stereo not drawn)	18	8	-0.4	22	-0.5%	-7.2
CC(C)CN1CC(COCc2ccccc2)Oc2ccccc2S1(=O)=O (stereo not drawn)	28	16	0.3	50	0.7%	-0.7
C#CCOCCOCCOCCNc1nc(N2CCN(C(=O)C([C@@H](C)O)n3cc([C@@H](N)CCCCN)nn3)CC2)nc(N2CCN(C(=O)[C@H](CCCCN)n3cc(CN)nn3)CC2)n1 (stereo partly drawn)	-10	-11	0.4	u	0.5%	-1.3

Brought forward from above: two entries, followed by the next part.
SMILES	CtBP-E1A inh	Six1-Eya2 blk	TRPML1 agonist	TRPML1 inh	PINK1 expr mod	D2 agonist
CC(C)CN1CC(COCc2ccccc2)Oc2ccccc2S1(=O)=O (stereo not drawn)	28	16	0.3	50	0.7%	-0.7
C#CCOCCOCCOCCNc1nc(N2CCN(C(=O)C([C@@H](C)O)n3cc([C@@H](N)CCCCN)nn3)CC2)nc(N2CCN(C(=O)[C@H](CCCCN)n3cc(CN)nn3)CC2)n1 (stereo partly drawn)	-10	-11	0.4	u	0.5%	-1.3
O=C1CNC(=S)N1Cc1cccc(Cl)c1	x	-2	-0.3	6	2.1%	-7.1
CC(C)c1nnc(NC(=O)CCC(=O)N2CCN(c3ccc(Cl)cc3)CC2)s1	-9	1	-1.2	14	-0.3%	-4.2
Cc1nc2c3cc(F)ccc3n(Cc3ccccc3)c2s1	7	1	1.2	-6	6.0%	-1.2
COCc1nc2ccccc2n1CCOc1ccccc1OC	14	-1	-1.0	-5	-1.5%	-5.2
N#Cc1cnc(Oc2ccc(Cl)cc2)nc1N	3	0	0.1	21	-0.9%	0.9
NC(=O)c1ccc(NC(=O)COC(=O)c2ccc3ccccc3n2)cc1	-2	-5	-0.1	-1	-1.6%	0.6
CCCCN(CCO)c1ncnc2sc(-c3ccccc3)cc12	-13	1	-0.8	3	-0.7%	1.6
CCCCCC/C(C)=C1/SC(=S)NC1=O	-11	-19	2.2	10	6.9%	-4.8
COc1cccc(CNn2cnnc2)c1OCc1ccc(F)cc1	-1	-4	-0.3	-2	0.8%	-0.7
COCCN(C(=O)c1ccc(-c2ccc(Cl)cc2)o1)c1c(N)n(Cc2ccccc2)c(=O)[nH]c1=O	0	-11	0.1	-5	-0.1%	4.8
N#CC1=C(Nc2ccccc2Cl)SC(c2ccncc2)NC1=O (stereo not drawn)	1	-4	-1.2	x	1.7%	-4.2
CCCOc1cc(CC(=O)NCc2ccco2)ccc1OC	-6	3	0.4	10	2.6%	0.6
CC(C)c1cc(NC(=O)CSc2nnc(-c3ccccc3F)n2C)on1	4	-1	0.3	-1	-1.3%[38.3 µM]	-1.9
CCOC(=O)c1ccc(N=C2SC(C(=O)Nc3ccc(C(=O)O)cc3)CC(=O)N2Cc2cccs2)cc1 (stereo not drawn)	1	-1	-0.5	12	2.2%	7.5
Nn1c(SCC(=O)NCC2CCCO2)nnc1-c1ccc(OC(F)F)cc1 (stereo not drawn)	0	10	2.6	-12	1.7%	-1.1
O=C1CCC2(C(=O)O)Sc3ccccc3N12 (stereo not drawn)	0	9	-0.1	12	-0.8%	-4.1
NC(=O)CSc1nnc(-c2ccc(S(=O)(=O)N3CCCC3)cc2)o1	7	5	0.7	-10	2.8%[38.3 µM]	0.4
CCNC(=O)n1cc(-n2cncn2)c(-c2ccccc2)n1	-2	0	0.5	20	-0.2%	1.7
CCOC(=O)CC(NC(=O)CCc1c(C)nc2ncnn2c1C)c1ccc(C)cc1 (stereo not drawn)	2	7	-0.3&-0.8	-6&2	-1.4%&2.9%	-1.4
c1cc2c(cc1-n1cnnn1)OCO2	7	1	-0.7	-10	0.8%	1.3
Cn1c(=O)n(C)c2cc(CNCc3ccc(F)cc3)ccc21	x	x	-0.7	-10	2.4%	x
COc1ccccc1-c1cc(C(=O)Nc2cc(Cl)ccc2O)no1	x	x	-0.4	12	2.6%	x
Cc1cc(C)nc(-n2nc(C)c(C3(O)C(=O)Nc4ccccc43)c2N)n1 (stereo not drawn)	12	1	-0.2	-8	0.9%[38.3 µM]	-2.9
CC1CCC(NC(=O)C(=O)Nc2ccc3c(c2)OCO3)CC1 (stereo not drawn)	1	3	0.3	-9	3.1%	-2.7
O=C(CSc1nnc(-c2cccnc2)n1C1CCCCC1)NC1CCCC1	-10	-7	1.8	-3	2.8%[38.3 µM]	-2.4

Pulled by compound from above (two):
SMILES	CtBP-E1A inh	Six1-Eya2 blk	TRPML1 agonist	TRPML1 inh	PINK1 expr mod	D2 agonist
Cn1c(=O)c2c(=O)cc(NNC(=O)C(C)(C)C)[nH]c2n(C)c1=O	0	-7	-1.3	-6	-2.4%	-4.0
O=C1c2ccccc2C(=O)N1CCSc1ccccc1	19	22	1.0	11	3.5%	-1.1

New compounds follow
SMILES	CtBP-E1A inh	Six1-Eya2 blk	TRPML1 agonist	TRPML1 inh	PINK1 expr mod	D2 agonist
C/C(=N\Nc1ccc([N+](=O)[O-])cc1)c1ccc(O)cc1	-6	-15	8.7	12	-3.7%	-8.6
Cc1cc(NC(=O)C(C)(C)Oc2ccc(Cl)cc2)cc(-c2nc3ncccc3o2)c1O	x	x	-0.2	2	0.5%	x
Cc1ccc(CC2C(=O)N(c3ccc(F)cc3)C(=O)C2C)cc1 (stereo not drawn)	3	6	0.5	8	-1.4%	-0.4
Cc1cc(-c2ccccc2)n2nc(-c3cccc(Br)c3)cc2n1	x	x	2.5	-4	-0.7%	x
COc1ccc(-c2c(C)nn3c4c(cnc23)C(=O)CC(c2ccccc2)C4)cc1 (stereo not drawn)	x	x	0.2	16	0.9%	x
COc1ccccc1N1CCN(C(=O)CSc2nc3ccccc3nc2Cc2ccc(C)cc2)CC1	x	x	1.9	-18	2.3%	x
O=C(N/C(=C/c1ccc(Br)cc1)C(=O)N1CCCCC1)c1ccccc1F	1	-18	0.9	-3	0.6%	-6.5
NC(c1csc(NC(=O)Nc2ccccc2Cl)n1)C1CCCCC1 (stereo not drawn)	-5	-3	-0.7	9	-1.6%	-2.6
CCCc1oc2ccc(NS(=O)(=O)c3ccc(OCC)cc3)cc2c1C(=O)OCC	x	x	1.5	32	12%	x
NS(=O)(=O)c1ccc(CNC(=O)CCSCCC(=O)NCc2ccc(S(N)(=O)=O)cc2)cc1	0	0	0.3	0	0.6%	-2.0
COc1ccc2sc(N(CCCN(C)C)C(=O)c3ccc(S(=O)(=O)N(C)Cc4ccccc4)cc3)nc2c1	-28	-27	0.8	-1	-2.5%	3.8
CC1CC(C)CN(C(=O)/C(=C\c2ccccc2)c2ccccc2)C1 (stereo not drawn)	1	6	1.5	58	18%	-1.1
CC(C)CN1CCN(Cc2nc3ccccc3s2)CC1CCO (stereo not drawn)	11	6	1.0	-11	-0.8%	-3.4
COCCCNC(=O)CCn1c(=O)c2ccccc2n(Cc2cccc([N+](=O)[O-])c2)c1=O	-2	9	-0.7	-18	-0.2%	-1.3
Cc1c(CCO)c(=O)n(C)n1C(=O)c1ccc(F)cc1	-2	4	-0.1	-4	-0.5%	-0.2
c1ccc(CCc2nn3c(Cn4nnc5ccccc54)nnc3s2)cc1	-2	0	-1.0	31	-0.8%	-2.7
COc1cc(/C=C(/NC(=O)c2ccc(Cl)cc2Cl)C(=O)O)cc(OC)c1OC	5	-1	-0.2	0	2.1%	-0.5
CCC(=O)Nc1cccc(-c2nc3ccccc3c(=O)o2)c1	5	-7	-1.9	-8	4.6%	-1.5
CCN1C(=O)C(=O)N(CC(=O)N2CCC(C)Sc3ccccc32)C1=O (stereo not drawn)	6	-3	0.0	12	-0.2%	-0.4

High-throughput results deposited in PubChem BioAssay by National Center for Advancing Translational Sciences (NCATS).
